# Screening results: PubChem BioAssay, Broad Institute
# Tg IFNy HTS = T. gondii growth inhibition under IFN-gamma | Toxoplasma gondii growth in IFN-gamma-treated host cells; hits give low values; reference of the scale not given here | activity change, negative = inhibition, %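 (about 20 µM by stock and volumes)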 | 69,000 tested, 3.8% active | AID 1259416;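 active means below -70%; inconclusive means fit judged invalid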;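 further: host cells are HeLa cells infected with Toxoplasma gondii; parasite growth read as luciferase light; one replicate is shown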
# The depositor's hits bear a star; i = inactive; ? = inconclusive; & = joins results of further samples. The list is partial; rates above refer to the full screens.
# Preview, 7 compounds:
SMILES	Tg IFNy HTS
Clc1cccc(CSc2nc(NCCc3ccccc3)c3ccccc3n2)c1	-42.6
CC[C@H](Cn1ncc2ccccc2c1=O)NC(=O)CN1C(=O)C2C3CCC(C3)C2C1=O (stereo partly specified)	3.8
C=CCc1ccccc1OCC(O)CNC(C)C (stereo unspecified)	-66.3&-53.4&5.3
COc1ccc(CNC(=O)C[C@@H]2CC[C@H](NC(=O)CN(C)C)[C@@H](CO)O2)cc1	22.5
CC(C)OCc1ncn2c1CN(C(=O)NCc1ccccc1)CCC2	4.3
C/C=C/c1ccccc1[C@H]1[C@H](C#N)N(c2nc(CC)cs2)[C@H]1CO	26.6
CN(Cc1nc(-c2ccco2)no1)Cc1cn[nH]c1-c1ccc(F)cc1	-17.0

# This part in full, repeating the preview:
SMILES	Tg IFNy HTS
Clc1cccc(CSc2nc(NCCc3ccccc3)c3ccccc3n2)c1	-42.6
CC[C@H](Cn1ncc2ccccc2c1=O)NC(=O)CN1C(=O)C2C3CCC(C3)C2C1=O (stereo partly specified)	3.8
C=CCc1ccccc1OCC(O)CNC(C)C (stereo unspecified)	-66.3&-53.4&5.3
COc1ccc(CNC(=O)C[C@@H]2CC[C@H](NC(=O)CN(C)C)[C@@H](CO)O2)cc1	22.5
CC(C)OCc1ncn2c1CN(C(=O)NCc1ccccc1)CCC2	4.3
C/C=C/c1ccccc1[C@H]1[C@H](C#N)N(c2nc(CC)cs2)[C@H]1CO	26.6
CN(Cc1nc(-c2ccco2)no1)Cc1cn[nH]c1-c1ccc(F)cc1	-17.0
CC(=O)O[C@@H]1CC2C(C)(CC[C@H](O)C2(C)C)C2CC[C@]3(C)C(=CC(=O)O[C@H]3c3ccoc3)C21C (stereo partly specified)	-63.3
C[C@@H]1CN([C@@H](C)CO)C(=O)Cc2cc(N(C)C)ccc2O[C@H]1CN(C)Cc1ccc(-c2ccccc2)cc1	68.7
COc1cccc(CNC(=O)CN2CCC3(CC2)Nc2ccccc2S(=O)(=O)N3)c1	-3.7
Cn1ccc(-c2cc(C(=O)Cc3ccccn3)c3ccccn23)n1	1.5
C[C@H]1CN([C@@H](C)CO)C(=O)CCCn2nncc2CO[C@H]1CN(C)Cc1ccc2cccnc2c1	168.7

# As entered above:
# C[C@@H]1CN([C@@H](C)CO)C(=O)Cc2cc(N(C)C)ccc2O[C@H]1CN(C)Cc1ccc(-c2ccccc2)cc1 | Tg IFNy HTS: 68.7
# CC[C@H](Cn1ncc2ccccc2c1=O)NC(=O)CN1C(=O)C2C3CCC(C3)C2C1=O (stereo partly specified) | Tg IFNy HTS: 3.8

# Next structures follow:
SMILES	Tg IFNy HTS
CCN1C(=O)N(Cc2cccc(OC)c2)C(=O)C12CCN(Cc1nc3ccccc3nc1C)CC2	9.0
COc1ccc(N(C(C)=O)C2C=CS(=O)(=O)C2)cc1 (stereo unspecified)	-18.9
Cc1nn(C)c(N2CCOCC2)c1CN1CCN2CCNC(=O)C2C1 (stereo unspecified)	4.2
COc1cccc(OC)c1-c1cc(C2CCN(CC3CCCC3)C2)ccn1 (stereo unspecified)	-9.4
Cc1cccc(C(=O)N2CCC3(CC(C(=O)N(C)C(C)C)=NO3)C2)c1 (stereo unspecified)	1.5
CCc1nc(CN2CCC(=O)N(Cc3ccc(F)cc3)C(C(C)C)C2)cs1 (stereo unspecified)	5.8
CC(C)S(=O)(=O)c1cscc1NC(=O)Nc1ccccc1	-1.2
Cc1cccc(C(=O)NCCc2sc(-c3ccc(Cl)cc3)nc2C)c1	-9.0
O=C(c1ccc2[nH]c(=O)c(=O)[nH]c2c1)N1CCCC2(CCNCC2)CC1	3.4
Cn1nc(C(=O)N2CCCC3(CC2)CNC(=O)O3)c2c1CCCC2 (stereo unspecified)	154.7
COc1ccc(C(=O)N2CCc3c([nH]c4ccccc34)C2c2ccc(F)cc2)cc1 (stereo unspecified)	-130.0*
O=C(C[C@@H]1CC[C@@H]2[C@H](COC[C@@H](O)CN2Cc2ccc(C(F)(F)F)cc2)O1)N1CCc2ccccc2C1	4.0
CCCC(=O)N1CCc2c([nH]c3ccccc23)C1c1ccc(Cl)cc1 (stereo unspecified)	-104.4*
O=C(C[C@H]1CC[C@@H]2[C@H](COC[C@@H](O)CN2Cc2nccs2)O1)NCc1ccccc1Cl	-26.1
O=S1(=O)C=CC(Cc2n[nH]c(Cc3ccccc3)n2)C1 (stereo unspecified)	2.1
COc1nc2ccccc2cc1CN1CCCC(CNC(C)=O)C1 (stereo unspecified)	5.6
CCS(=O)(=O)N1CCC2(CC1)OC(=O)C(C)=C2C(=O)Nc1ccc2c(c1)OCCO2	39.3
O=C1C2CCCCC2C(=O)N1c1ccc(OS(=O)(=O)c2ccccc2)cc1 (stereo unspecified)	-26.0
COc1ccc(-c2cc(-c3ccc(OC)cc3)nc(-c3ccc(C)o3)c2)cc1	36.9
C[C@H](N)[C@H](O)c1cccc(O)c1	23.0
Cc1cccc(C(=O)O/C(=C\c2nc3ccccc3n2C)c2cccc(C)c2)c1	-0.6
COCCN1CCCC(O)(CN2CCN(c3nc4ccccc4o3)CC2)C1=O (stereo unspecified)	4.8
CC1=C(C(=O)NCCc2ccc(C)cc2)C2(CCN(S(C)(=O)=O)CC2)OC1=O	17.7
Cc1nc2sccn2c1C(=O)N(Cc1ccccn1)CC1CCCO1 (stereo unspecified)	12.3
COC(=O)Nc1ccc(S(=O)(=O)N2CCCCC2)cc1	24.8
Cn1c(=O)c(-c2nc(-c3cccs3)no2)c(O)c2ccccc21	67.9
C=CC(=O)N1CCC2(CC1)CN(c1ccccn1)CCO2	-0.7
O=C(c1ccc(F)cc1)N1CC(=O)N2[C@H](CO)[C@@H](c3ccc(C#CCC4CCCC4)cc3)[C@@H]2C1	-32.8
Cc1nc(C2CCCN2S(=O)(=O)N(C)C)nc2c1CCCN2CC1CCCCC1 (stereo unspecified)	-67.1
CCN=C1SC(CC(=O)Nc2ccc(C)cc2)C(=O)N1CC (stereo unspecified)	-19.8
CN(Cc1cc2n(n1)CCCNC2)Cc1cc(-c2ccncc2)no1	2.2
C[C@@H]1CN([C@H](C)CO)C(=O)c2cc(C#Cc3ccccc3)cnc2O[C@H]1CN(C)C(=O)c1ccccc1	2.1
CC(C)Nc1ncnc2c1CCN(C1CCOCC1)CC2	-19.2
Fc1ccc(OCCCN2CCN(Cc3cc4n(n3)CCNC4)CC2)cc1	-3.2
CCOC(=O)C(C)c1nc2ccccc2[nH]c1=O (stereo unspecified)	-6.5
O=P(O)(O)C(Cl)(Cl)P(=O)(O)O	-22.9
Cc1nc(NCCN2CCCCC2CO)cc(C(C)C)n1 (stereo unspecified)	-39.9
COc1ccc(C(=O)NCCc2sc(-c3ccccc3)nc2C)cc1OC	i
O=C(NC1CCC12CCN(Cc1ccco1)CC2)c1cnccn1 (stereo unspecified)	-2.5
COc1ccc(-n2c(=O)c(C(=O)NCc3ccccc3)c(O)c3cccnc32)cc1	92.5
Cc1ccc(Nc2ncc(C(=O)N(C)Cc3nnc(-c4ccccc4)o3)c(C)n2)cc1	-11.8
O=C(NN1CC(=O)N(C2CCCC2)C1=O)C(c1ccccc1)c1ccccc1	30.7
CN(C)C(=O)N1CCOCC2(CC(CN3CCCC3)CO2)C1 (stereo unspecified)	-33.6
CS(=O)(=O)N1CCCCC12CCC2	-20.8
Cc1ccc(S(=O)(=O)N(C)c2cncc(C(=O)N3CCC(Cc4ccccc4)CC3)c2)cc1	-96.0*
CC(C)(C)c1csc(CCNC(=O)CCn2cnc3ccccc3c2=O)n1	3.8
CC(C)CCn1c(CN2CCN3C(=O)CNC(=O)C3C2)nc2ccccc21 (stereo unspecified)	-4.8
CCN1CCn2c(-c3ccccc3)cnc2C12CCN(C(=O)Cc1ccccn1)CC2	5.1
Cc1cc(C(=O)Nc2ccc3c(c2)C(=O)N(C)[C@H]2CC[C@H](CC(=O)O)O[C@@H]2CO3)no1	23.9
O=C(c1ccc(-c2cccnc2)nc1)N1CCC(Oc2cccnc2)CC1	-7.8
CCS(=O)(=O)N1CC2(CN(Cc3ccc4c(c3)OCO4)[C@@H](CO)c3[nH]c4cc(OC)ccc4c32)C1	-17.5
CCOCC(=O)N1CCc2c(nc(N(C)C)nc2N(C)C)C1	-5.3
O=C1CC(c2ccc(O)cc2)Oc2cc(O)cc(O)c21 (stereo unspecified)	66.7
Cc1ccc(S(=O)(=O)N2CCC3(CC2)NCCN=C3NC2CCCC2)cc1C	12.3
COc1cccc(S(=O)(=O)Nc2ccc3c(c2)C(=O)N(C)C[C@H](OC)[C@H](C)CN(Cc2ccccc2F)[C@H](C)CO3)c1	-57.4
CSc1ccccc1Nc1ncnc(N)n1	42.8
CN(C)Cc1cn2c(n1)CN(S(=O)(=O)c1cn(C)cn1)CC2	0.3
NCC1CCN(Cc2ccnc3ccccc23)C1 (stereo unspecified)	-2.1
Cc1nonc1COc1ccccc1C(=O)Nc1nc(C(C)C)cs1	2.3
CC(c1cncs1)N(C)C(=O)c1cc(COc2cccc(F)c2)[nH]n1 (stereo unspecified)	-1.2

# Going on with the list.
SMILES	Tg IFNy HTS
O=C(O)c1cnc(=O)[nH]c1-c1ccncc1	-6.1
COc1cccc2c1OCCCN(C(=O)Cc1c(C)nc(C)[nH]c1=O)C2	-5.9
O=C1CCc2cc(S(=O)(=O)NCc3cccs3)cc3c2N1CCC3	1.7
Cc1ccc(S(=O)(=O)NCCc2csc(-c3ccc(F)cc3)n2)cc1C	-28.1
Cc1ccc(S(=O)(=O)N2CCOCC3(CCN(C)C3)C2)cc1F (stereo unspecified)	-8.3
CCOc1ncnc2c1CCN(S(=O)(=O)C1CC1)CC2	266.8
Cc1ccccc1CC(=O)Nc1ccc(-c2nc(Cn3cccn3)c(C)o2)cc1	31.8
Cc1c(O)c(=O)n(-c2ccccc2)n1C	-0.1
COc1ccc(CN(CC(=O)NC2CCCCC2)C(=O)c2ccc(-c3ccccc3)[nH]2)cc1	-32.1
Cc1ccc(CN2CC[C@@H]3C[C@@H](c4nnc(C5CC5)o4)O[C@H]3C2)s1	9.5
CC(C)(C)NC[C@H](O)COc1ccccc1C1CCCC1	16.3
Cc1nc(-c2ccccc2)sc1CCNC(=O)C(=O)Nc1cccc(F)c1	-7.3
Cc1cc(C(=O)Nc2cccc(-c3cn4ccsc4n3)c2)nc(N2CCOCC2)n1	-37.9
COc1ccccc1-c1ccccc1[C@H]1[C@@H](CO)N(C(=O)CN(C)C)[C@H]1C#N	-26.7
C=CCC(O)(CC=C)C(N)CCSC (stereo unspecified)	-14.7
CCS(=O)(=O)N1CCc2c(CNc3ccnc(C)n3)cncc2C1	28.4
NC(Cc1ccc(F)cc1)C(=O)O (stereo unspecified)	7.0
Cc1ccc(CN2CCC3(CC2)CC(NC(=O)N(C)C)CCO3)s1 (stereo unspecified)	170.1
O=C(c1ccn[nH]1)N1CCCC2(CC(Oc3cccnc3)CO2)C1 (stereo unspecified)	-94.9*
CC(C)Cc1ncc2c(n1)CN(C(=O)c1ccc(Cn3ccnc3)o1)C2	20.2
O=C(Nc1ccc(F)cc1)N1CCCn2nnc(CN3CCCCC3)c2C1	11.7
COCCN(Cc1nccs1)C(=O)c1cc(C)nc2ccc(C)cc12	15.7
O=C1N[C@]2(CC[C@@H]3CN(C(=O)c4cc(-c5ccco5)on4)C[C@@H]32)Nc2ccccc21	0.5
Cc1ccc(CN2CCC3(CC2)N=C(c2ccc(C)cc2)C(=O)N3)cc1	-18.8
COCCn1c(COc2ccc(Cl)cc2)nc2ccccc21	71.3
COCc1nn(C(C)C)c2c1CCN(Cc1nccs1)C2	0.3
CC1=C(C(=O)NCCCN(CC(C)C)CC(C)C)C2(CCN(S(C)(=O)=O)CC2)OC1=O	48.6
CCOCC1c2c(ncn2C)CCN1C(=O)c1cnc(C)cn1 (stereo unspecified)	3.6
COCCOc1cc(C)nc(N2CCOCC2)n1	-37.4
Cc1ccccc1NC(=O)CN1CCCCC1	1.7
COCCNc1nnc(C2CCOC2)s1 (stereo unspecified)	?
CS(=O)(=O)CCNC(=O)CCC(=O)NC1CCCCCCC1	8.0
Cc1ccc(C(=O)N2CCc3ccc(=O)n(C)c3CC2)cc1F	-1.4
N#Cc1ccc(CN2CCC3(CC2)CC(NC(=O)C2CC2)CCO3)cc1 (stereo unspecified)	-0.7
O=C(Nc1ccccc1C(F)(F)F)N1CCCCC1CCn1ccnc1 (stereo unspecified)	7.0
O=c1[nH]nc(-c2ccc(F)cc2)c2c1Nc1nnnn1C2c1ccccc1Cl (stereo unspecified)	60.6

# The final 2 compounds of the section before lead into the next:
SMILES	Tg IFNy HTS
O=C(Nc1ccccc1C(F)(F)F)N1CCCCC1CCn1ccnc1 (stereo unspecified)	7.0
O=c1[nH]nc(-c2ccc(F)cc2)c2c1Nc1nnnn1C2c1ccccc1Cl (stereo unspecified)	60.6
COc1ccc(N2CCCN(C(=O)c3ccc4nc(C)sc4c3)CC2)cc1	353.2
COc1ccccc1Cn1nc(C)cc1N	-33.9
CC(O)C(=O)N1CCC(c2[nH]ncc2Cc2ccccc2)CC1 (stereo unspecified)	2.6
CCN(CC)C(=O)Oc1c(Br)cc(Br)c2cccnc12	-16.6
COc1ccc([C@H]2C/C=C\C[C@@H](c3cccc(Cl)c3)NC(=O)[C@H](c3ccccc3)CC(=O)N2)c(OC)c1	70.9
Cc1cc(C2CCC2)nc(N(C)Cc2cccnc2)n1	6.7
Cc1ccc(-c2csnn2)cc1NC(=O)c1cc(-n2cccn2)ccc1Cl	12.8
COc1ccc(-n2c(CN)n[nH]c2=O)cc1Cl	-3.9
Cc1nn(-c2ccccc2)c(C)c1CCC(=O)Nc1nnc(-c2ccccc2F)s1	-16.0
Cc1[nH]n2c(=O)cc(CSc3nnnn3-c3ccccc3)nc2c1-c1ccc(F)cc1	-92.5*
OC[C@@H]1[C@@H](c2ccccc2)C2(CN(CC3CC3)C2)N1Cc1ccc(F)cc1	-59.1
COc1cc(C(=O)ON=C2C3CC4CC(C3)CC2C4)cc(OC)c1OC	-106.0*
